Menin MLL FP FL: menin-MLL binding inhibition, fluorescein peptide; FP activity change, % at 61.4 µM; 290,000 tested, under 10 active; Fluorescence polarization, fluorescein-MLL peptide displacement from menin; AID 1766; inconclusive = falling polarisation curve, or a change in total fluorescence; inactive = total fluorescence flat and polarisation flat or rising; no compound was filed as active; the % refers to the polarisation; negative = inhibition;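 also: % of control where 0% means no effect; inhibitors lower the polarisation; unlabelled MLL peptide was the positive control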
TRPML1 ag: agonists of human TRPML1 channel; 0.12% of 410,000 active; AID 624414; activation, % (no concentration beside the values); TRPML1-expressing cells, Ca2+ dye fluorescence, FDSS; host cell line not named in the record; reference of the full effect not given here; Q9GZU1; in the data active = activation above about 50%; inconclusive = about 30% to 50%; inactive = below about 30%; also: 0% is about no effect; the text of the record puts the active cut at 80%
Target sequence (Q9GZU1 whole entry, looked up): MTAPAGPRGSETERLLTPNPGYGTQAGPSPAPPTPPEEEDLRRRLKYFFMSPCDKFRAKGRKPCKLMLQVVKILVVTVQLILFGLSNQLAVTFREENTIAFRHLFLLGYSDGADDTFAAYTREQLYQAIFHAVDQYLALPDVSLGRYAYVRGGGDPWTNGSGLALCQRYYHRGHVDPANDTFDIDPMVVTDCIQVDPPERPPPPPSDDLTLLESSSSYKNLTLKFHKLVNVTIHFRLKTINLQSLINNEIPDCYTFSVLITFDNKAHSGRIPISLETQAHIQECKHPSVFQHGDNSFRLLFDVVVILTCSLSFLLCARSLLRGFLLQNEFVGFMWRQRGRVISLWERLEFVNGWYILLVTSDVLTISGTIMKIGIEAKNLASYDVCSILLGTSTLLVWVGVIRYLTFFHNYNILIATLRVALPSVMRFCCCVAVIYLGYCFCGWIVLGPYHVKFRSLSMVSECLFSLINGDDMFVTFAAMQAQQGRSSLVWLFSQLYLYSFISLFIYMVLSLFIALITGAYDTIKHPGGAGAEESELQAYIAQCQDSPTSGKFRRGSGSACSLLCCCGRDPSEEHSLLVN
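Tet-induced TRPML1-DL cells, 1,500 per well, cultured overnight, were loaded with a no-wash Ca2+ dye for 45–90 min. Calcium fluorescence was recorded on the FDSS for 110 s after compound addition, before the EC80 agonist (4 uM 54-4) was added.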
ClpP mod: qHTS Assay for Activators of ClpP | Potency, µM (titrated, usually from 57.5 µM), for the others: at the highest dose activity change, negative = active | 1.9% of 340,000 active | AID 651965, 2013 | purified B. subtilis ClpP, FRET peptide cleavage, 20 min; active = well fitted falling curve with a large enough effect; inconclusive = small, poorly fitted or top-dose-only effect; inactive = no such curve, though single readings can be large or run the other way; also: potency is read from the fitted curve at half-maximal effect; the source files actives as falling curves though it sought activators and does not explain the sign; nearly all actives have a fitted effect of over 65% in size; many hits overshoot -100%
Target sequence (P80244 whole entry, looked up): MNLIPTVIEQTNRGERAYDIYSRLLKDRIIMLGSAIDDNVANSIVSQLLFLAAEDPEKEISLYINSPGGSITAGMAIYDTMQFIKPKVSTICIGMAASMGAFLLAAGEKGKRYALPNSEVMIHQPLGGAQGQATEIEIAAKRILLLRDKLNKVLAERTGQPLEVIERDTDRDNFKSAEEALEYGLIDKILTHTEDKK
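ClpP 10 microg/mL final, pH 8 Tris/KCl buffer with BSA, glycerol, Tween-20; compound pinned in; FRET-FV substrate; RT 20 min; Ex320/Em430; ΔFRET vs ADEP 5.8 microM, DMSO, no enzyme.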
TRPML1 inh: blocks the human TRPML1 channel; Q9GZU1; TRPML1-inducible cells, Ca2+ dye fluorescence, FDSS; hits give low values; inhibition of EC80 agonist-evoked calcium signal; activity change, negative = inhibition, % (concentration not given with the values); 0.02% of 390,000 active; AID 624415; in the data active means activity change below about -50%; inconclusive means about -30% to -50%; inactive means above about -30%;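 also: stimulus is agonist 54-4 at its EC80 concentration; % is scaled to controls: 0 for no effect and ±100 for the full control effect; compound concentration not given in the record; the text of the record puts the active cut at -80%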
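Calcium fluorescence in TRPML1-DL cells induced overnight with Tet: a 110 s read after compound pin addition, then a 110 s antagonist read after challenge with 54-4 at 4 uM final (EC80).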
gsp ag: activates gsp, the McCune-Albright syndrome mutation; 0.13% of 340,000 active; Potency, µM (top dose mostly 76.9 µM), for inactives: at the highest dose activation (cAMP increase), actives largely listed as activators; gsp mutant cells, cAMP HTRF, 30 min; control for the full effect not named in the record; active = well fitted activation curve with a large enough effect; inconclusive = small, poorly fitted or top-dose-only effect, or another doubt; inactive = no such curve, though single readings can be large or run the other way; cell line not stated here;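 also: phosphodiesterase inhibitor Ro 20-1724 added with compounds to block cAMP breakdown; potency is read from the fitted curve at half-maximal effect; nearly all actives have a fitted effect of over 60% in size; about a fifth of the inactives were tested at one dose only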
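Cells in DMEM/10% FBS with G418 were pretreated with compounds in DMSO plus […] (300 uM stock) for 30 min at 37C. cAMP was measured by HTRF (cAMP-d2 plus anti-cAMP antibody-K) after 30 min at room temperature.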
gsp antag: gsp mutant antagonism. 0.4% of 340,000 active. AID 624288. Potency, µM (top dose mostly 76.9 µM), inactives show at the top dose activity change, negative = inhibition, usual class: inhibitors. gsp-mutant cells, cAMP HTRF, 30 min; control for the full effect not named in the record; active = falling curve of any shape with a large fitted effect; inconclusive = falling curve, mostly with a smaller effect; inactive = flat or rising curve; cell line not stated here;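 also: intracellular cAMP measured with PDE inhibitor Ro 20-1724 present during compound exposure; potency is read from the fitted curve at half-maximal effect; % is scaled to controls: 0 for no effect and ±100 for the full control effect; nearly all actives have a fitted effect of over 65% in size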
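G418-selected cells were plated in DMEM/10% FBS for 16-24 h at 37C, then treated with compounds plus the PDE inhibitor […] (300 uM solution added) for 30 min at 37C. Intracellular cAMP was measured by HTRF after 30 min lysis at room temperature.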
Starred values were filed as active, the others as inactive; ? = inconclusive; / = no result given; & = joins results of further samples; [ ] = another dose, or the depositor's remark.

SMILES	Menin MLL FP FL	TRPML1 ag	ClpP mod	TRPML1 inh	gsp ag	gsp antag
COc1ccc(N2CCN(C(=O)c3cnc(SC)nc3C)CC2)cc1	/	0.7	1.1%	9	/	/
COCC1CCCCN1C(=O)c1cc(COc2ccc3ncccc3c2)on1 (stereo unspecified)	/	-0.5	-2.1%	-4	?	1%
Fc1ccc(Nc2nc3ccccc3n3cnnc23)c(F)c1	/	-0.3	?	-1	/	/
Cc1cc(C(=O)NNC(=O)c2ccc(C(F)(F)F)cc2)no1	5.3	0.4	/	-16	-5%[15.4 µM]	-2%
COc1ccccc1-n1cc([C@@H]2C[C@H]3CN(c4ccccc4)C(=O)[C@]34CCCN24)cn1	-0.4	-0.7	/	15	-9%	-15%
Cc1ccc(C(=O)COC(=O)COc2ccccc2[N+](=O)[O-])s1	/	-1.0	1.1%	0	-32%[inhibitor]	1%
COc1ccc(NC(=O)COc2cccc(-n3cnnn3)c2)cc1Cl	/	0.9	/	-6	4%[15.4 µM]	8%
O=C(CNC(=O)c1ccco1)OCC(=O)c1ccccc1Cl	-0.4	0.5	1.7%	-6	9%	3%
COc1ccc(C2CC(c3ccccc3)=NN2c2ccc(C(N)=O)cc2)cc1 (stereo unspecified)	6.7	-1.5	-0.3%	-15	0%[15.4 µM]	-26%
C=CCC[C@@H](Cc1ccc(F)cc1)C(=O)OC[C@H](Cc1c[nH]c2ccccc12)NC(=O)[C@@H](CC=C)CC(=O)N[C@@H](CO)Cc1ccccc1	/	-1.1	1.9%	-4	/	-8%
Cc1onc(-c2c(F)cccc2Cl)c1C(=O)N1CCSCC1	1.9	1.3	/	5	-5%[15.4 µM]	-2%
Cc1sc(NC(=O)CSC2=NCCS2)nc1-c1ccccc1	1.0	-0.3	-3.0%	4	1%	-9%
COc1ccc(OC(C)C(=O)NCCC2=CCCCC2)cc1 (stereo unspecified)	0.8	2.4	/	28	-7%	-3%
O=C(Nc1nc2c(F)cccc2s1)c1ccc(S(=O)(=O)N2CCCc3ccccc32)cc1	/	0.2	-2.5%	4	/	/
Cc1cc([N+](=O)[O-])ccc1NC(=O)CSc1nncn1-c1ccccn1	0.0	9.1	/	22	2%	-2%
Cc1ccc(O)c(CNc2ccccn2)c1	2.5	0.1	-6.0%	-4	-5%	8%
Oc1ccccc1Nc1nc(NCC2CCCO2)c2ccccc2n1 (stereo unspecified)	1.9	0.7	2.9%	64	-9%	?
CCN(CCn1cccn1)C(=O)CCc1nnc(CCc2ccccc2OC)o1	1.1	0.2	/	13	9%	3%
O=C(Nc1ccccc1O)C(c1ccccc1)c1ccccc1	6.7	0.1	/	1	16%	?
COc1ccc2nc(NC(=O)CSC(C)C(=O)Nc3cc(C)on3)sc2c1 (stereo unspecified)	/	1.7	/	-10	-3%[15.4 µM]	0%

Overlap with the part before: 3 compounds, then new ones.
SMILES	Menin MLL FP FL	TRPML1 ag	ClpP mod	TRPML1 inh	gsp ag	gsp antag
CCN(CCn1cccn1)C(=O)CCc1nnc(CCc2ccccc2OC)o1	1.1	0.2	/	13	9%	3%
O=C(Nc1ccccc1O)C(c1ccccc1)c1ccccc1	6.7	0.1	/	1	16%	?
COc1ccc2nc(NC(=O)CSC(C)C(=O)Nc3cc(C)on3)sc2c1 (stereo unspecified)	/	1.7	/	-10	-3%[15.4 µM]	0%
O=C(Nc1cc([N+](=O)[O-])ccc1Cl)c1ccc2c(c1)OCO2	-5.8	-0.2	/	-13	-1%[15.4 µM]	7%
Cc1cccc(NC(=S)NC(=O)/C=C/c2ccccc2)n1	-2.7	0.4	/	-17	1%	2%
Cc1ccc(CSCC(=O)Nc2ccccc2C(=O)O)cc1	3.8	1.9	-4.1%	-12	1%	-22%
O=S(=O)(NC1CCCC1)c1ccccc1Cl	-1.3	-0.5	0.8%	-2	0%	8%
O=C(Nc1cccc(NC(=O)c2ccco2)c1)c1ccccc1	/	1.6	/	0	?	-12%
CCOC(=O)c1[nH]c2c(c1Cc1ccccc1)C(=O)CC(c1ccccc1)C2 (stereo unspecified)	/	0.1	0.8%	-1	/	/
CC(C)(C)C(=O)N1CCN(c2nc3ccc(Br)cc3s2)CC1	/	0.1	0.8%	-3	16%	-4%
COc1ccc(/C=N/N2C(C)CCCC2C)cc1OC (stereo unspecified)	5.9	-1.2	-0.4%	0	2%[15.4 µM]	-6%
C[C@]12C(=O)N(c3ccccc3)C(=O)N1[C@H]1c3ccccc3OC[C@@H]1[C@H]2c1ccccc1	/	-0.5	-3.6%	9	-25%	-4%
Cc1cc(C)c(S(=O)(=O)Nc2cc(Cl)c3oc4c(c3c2)C(=O)CCC4)cc1C	/	0.6	-1.1%	6	/	/
O=C(CCSCc1ccccc1F)N1CCN(c2ccc(Cl)cc2)CC1	/	3.4	-1.0%	51	/	/
CC(C)N(Cc1cc2ccccc2[nH]c1=O)C(=O)c1cccnc1	2.2	0.1	?	-14	-31%[inhibitor]	-5%
CN(C)c1ccc(/C=C2\SC(N3CCCCC3)=NC2=O)cc1	?	4.9	-1.6%	5	-37%[inhibitor]	-18%
COc1cccc(CN(C(=O)c2ccc(C(C)(C)C)cc2)C2CCS(=O)(=O)C2)c1 (stereo unspecified)	/	-0.5	-1.5%	-1	/	/
Cc1c(Cl)cccc1NC(=S)NCCc1ccc(F)cc1	-0.2	0.6	-11%	-1	-28%[15.4 µM]	3%
O=C(N/N=C\c1ccc(Cl)cc1)c1sccc1-n1cccc1	-1.8	2.5	0.5%	2	5%	-11%
Cc1ccccc1CN1CCC(n2nccc2NC(=O)c2ccc3c(c2)OCO3)CC1	/	0.0	-0.3%	8	-49%[inhibitor]	3%
Nc1ccccc1C(=O)NCc1ccccc1	2.5	0.0	28µM*	1	-16%	-6%
CCN1CCc2c(sc(NC(=O)C3COc4ccccc4O3)c2C(N)=O)C1 (stereo unspecified)	1.2	0.7	14%	13	-2%	-2%
CC(C)CCn1c(NCCc2ccccc2)nc2c1c(=O)n(C)c(=O)n2C	0.0	1.4	-0.4%	-7	1%	-16%
CC(=O)N1c2ccccc2C(=O)C1N1CCN(c2ccccc2F)CC1 (stereo unspecified)	/	1.8	-13%	1	/	/
COc1cc(/C=N/NC(=O)c2cccc([N+](=O)[O-])c2)ccc1O	-5.9	1.1	-1.1%	1	-7%	1%
COC(=O)C1=C(C)N(Cc2ccc(C)cc2)C(=O)/C1=C\c1cc(OC)c(OC)c(OC)c1	5.3	-0.2	/	1	26%	4%
CCCCn1nc2cc(C(=O)N[C@H](C)C3CCCCC3)ccc2c1OCC	2.2	3.3	3.9%	32	/	2%
CCN1CCN(c2ccc(N3CCN(S(=O)(=O)c4cc([N+](=O)[O-])ccc4C)CC3)nn2)CC1	/	-0.3	-4.8%	4	-9%	2%
COC(C[C@H](O)C[C@H](O)COCc1ccccc1)OC	2.5	0.4	-1.0%	-8	/	9%
CSc1ccc(CCNC(=O)CN2C(=O)c3cccnc3Oc3ccc(C)cc32)cc1	2.9	1.6&2.9	-2.1%	12&50	?	?
Cc1cccc(N(C(=O)CCC(=O)Nc2cccnc2)C(C(=O)NC2CCCC2)c2ccncc2)c1 (stereo unspecified)	-2.4	0.2	0.2%	19	-47%[inhibitor]	-5%
O=C(O)c1ccc(S(=O)(=O)c2ccc3c(c2)C(=O)N(NC(=O)c2ccc(O)cc2)C3=O)cc1	-3.1	1.0	/	17	-3%[15.4 µM]	1%
CC(C)(C)c1cc(C(=O)NCc2cccnc2)ccn1	-3.2	-0.2	-1.3%	24	7%	0%
O=C(CCNC(=O)c1ccco1)NCc1ccccc1	-1.6	0.1	-2.5%	5	-18%	2%
COc1ccccc1NS(=O)(=O)c1cccc(C(=O)N/N=C/c2ccc(N3CCOCC3)cc2)c1	1.6	-0.4	-8.8%	-8	8%[15.4 µM]	-12%
Nc1nc(SCC(=O)Nc2ccc(Cl)cc2)[nH]c(=O)c1-c1ccccc1	-1.6	0.3	/	2	-1%[15.4 µM]	/
CN(c1ccccc1C(=O)Nc1ccc2c(c1)OCO2)S(C)(=O)=O	-4.3	0.2	0.2%	13	-2%	12%
CCc1nnc(NS(=O)(=O)c2ccc(NC(=O)c3ccccc3C)cc2)s1	-5.7	0.6	-2.6%	-9	6%	4%
CC(=O)c1c(N)[nH]c(-c2ccccc2)nc1=S	-0.1	0.5	0.9%	5	2%	5%[15.4 µM]
C=CCn1c(CCNC(=O)c2cccs2)nnc1SCC(=O)Nc1cccc(F)c1	2.8	-0.2	2.1%	14	-32%[inhibitor]	-5%
O=C(c1cncc(Br)c1)N1CCN(c2ccc([N+](=O)[O-])cc2)CC1	8.5	0.4	28µM*	2	1%	-3%
S=C(NCc1ccccc1)Nc1cccc(Cl)c1	1.3	-0.3	?	24	-29%	-5%
O=C(CSc1nc(=O)n(CCCN2CCOCC2)c2c1CCCC2)Nc1ccc(F)c(F)c1	/	-0.6	-3.3%	7	-52%[inhibitor]	4%
COc1ccc(/C=C(/NC(=O)c2ccc(OC)c(OC)c2)C(=O)NCCc2c[nH]c3ccccc23)cc1	/	0.1	-4.3%	52	-2%	-6%
O=C(CCCl)N1CCN(c2nc(-c3ccccc3)cs2)CC1	-0.8	-1.1	-3.8%	-4	-6%	-8%
CNC(=O)COC(=O)c1cc2c(C)nn(-c3ccc(F)cc3)c2s1	2.2	0.0	35µM*	-5	-58%[inhibitor]	18%
O=C(O)c1ccc(NS(=O)(=O)c2ccc(Cl)c(C(=O)Nc3ccccc3[N+](=O)[O-])c2)cc1	0.9	-0.1	-0.3%	18	-2%	2%
CC(=C/c1ccccc1)/C=N/NC(=O)CSc1nc(C)cc(C)n1	1.5	2.0	1.1%	-22	?	-24%
CCOc1ccc(/C=C(\C)C(=O)c2c(C)cc(C)[nH]c2=O)cc1	-2.9	-1.0	-1.0%	5	-11%	-3%
COc1ccc2[nH]c3c(c2c1)CCN1C(=O)C(CC(=O)NCCC2=CCCCC2)C[C@H](C(=O)N2CCCCC2)[C@@]31CCc1ccccc1 (stereo partly specified)	/	-1.3	-0.3%	11	/	-5%
CCn1cc(SCC(=O)N2CCOCC2)c2ccccc21	3.3	0.5	-1.6%	-2	-1%	5%
Cc1ccc2nc(-c3cccc(NC(=O)c4ccco4)c3)[nH]c2c1	0.2	0.4	-17%	11	0%	2%
Cn1c(=O)n(C)c2cc(NS(=O)(=O)c3ccccc3)ccc21	-3.2	-0.8	2.8%	4	-12%	4%
COC(=O)C(NS(=O)(=O)c1ccc(C)cc1)c1ccccc1 (stereo unspecified)	-0.8	-0.1	/	3	-40%[inhibitor]	2%
COc1ccccc1CCNC(=O)C(=O)NCC1OCCN1S(=O)(=O)c1cccs1 (stereo unspecified)	/	1.4	0.8%	2	?	-3%
CCN(CC)C(=S)SCC(=O)c1ccccc1	0.0	0.4	6.2%	7	4%	-1%

Compound activity as filed in PubChem.
